Compound activity (PubChem BioAssay)
hNpr1 antagonist: blocks ANP-stimulated signaling of human Npr1 receptor; P16066; HEK293 hNpr1 GloSensor cGMP, ANP-stimulated luminescence; Potency, µM (doses to about 46.3 µM), for inactives: top-dose activity change, negative = inhibition, actives largely listed as inhibitors; hit rate 1.6% among 76,000; active = well fitted inhibition curve with a large enough effect; inconclusive = small, poorly fitted or top-dose-only effect; inactive = no such curve, though single readings can be large or run the other way;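 note: nearly all actives have a fitted effect of over 60% in size; nearly all hits also lower the signal before the agonist is added; a reference antagonist and vehicle were the controls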
Target sequence (P16066 whole entry, looked up): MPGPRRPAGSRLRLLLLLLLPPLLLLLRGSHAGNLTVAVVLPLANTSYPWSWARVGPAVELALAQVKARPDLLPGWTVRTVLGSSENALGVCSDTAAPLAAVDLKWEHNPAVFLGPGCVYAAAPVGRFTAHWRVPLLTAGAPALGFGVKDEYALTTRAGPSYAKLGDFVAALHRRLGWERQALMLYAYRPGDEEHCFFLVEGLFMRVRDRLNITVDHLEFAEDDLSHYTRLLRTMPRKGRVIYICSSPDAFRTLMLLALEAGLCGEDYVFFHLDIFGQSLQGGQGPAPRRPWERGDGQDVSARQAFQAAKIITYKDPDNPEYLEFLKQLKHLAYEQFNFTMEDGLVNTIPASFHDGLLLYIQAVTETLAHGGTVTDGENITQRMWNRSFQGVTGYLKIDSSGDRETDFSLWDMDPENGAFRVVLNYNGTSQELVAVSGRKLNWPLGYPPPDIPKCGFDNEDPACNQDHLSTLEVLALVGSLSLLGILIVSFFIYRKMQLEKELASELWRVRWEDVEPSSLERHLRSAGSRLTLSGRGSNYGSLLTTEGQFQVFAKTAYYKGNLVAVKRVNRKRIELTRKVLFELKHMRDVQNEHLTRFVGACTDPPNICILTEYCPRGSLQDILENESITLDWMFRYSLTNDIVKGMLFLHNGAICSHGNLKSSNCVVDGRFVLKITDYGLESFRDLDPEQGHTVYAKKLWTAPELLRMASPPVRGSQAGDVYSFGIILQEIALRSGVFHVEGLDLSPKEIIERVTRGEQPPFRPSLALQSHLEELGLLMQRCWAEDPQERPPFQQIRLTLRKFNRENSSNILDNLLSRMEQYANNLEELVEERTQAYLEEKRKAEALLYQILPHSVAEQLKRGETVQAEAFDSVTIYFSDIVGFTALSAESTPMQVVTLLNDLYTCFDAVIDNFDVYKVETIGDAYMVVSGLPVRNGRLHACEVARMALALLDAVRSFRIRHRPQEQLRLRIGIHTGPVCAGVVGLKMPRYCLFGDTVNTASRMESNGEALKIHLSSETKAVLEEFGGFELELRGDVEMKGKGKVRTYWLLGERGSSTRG
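HEK293 cells stably expressing human Npr1 and cGMP GloSensor pGS-40F, loaded 2 h with 2% GloSensor reagent, given compound 30 min at room temperature. Luminescence read before and 20 min after 0.1 nM hNppA.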
* = called active by the depositor; ? = inconclusive; [ ] = dose if it differs, or a comment. % is set by controls: 0 for no effect and ±100 for the full control effect; potency is the fitted concentration of half-maximal effect. Only part of the results is shown; count on the stated rates, not on these rows.

Molecule	hNpr1 antagonist
COCCNC(=O)N1CCc2nc(N3CCN(C)CC3)sc2C1	1%
CCS(=O)(=O)N1CCCC(c2nc(CCOc3ccc(F)cc3)no2)C1 (stereo not drawn)	-8%
Cc1noc(C)c1CC(=O)N1CCc2nnc([C@@H]3C[C@@H](O)CN3C(C)C)n2CC1	7%
COc1cccc(CNC(=O)[C@@H]2C[C@@H](O)CN2C2CCN(C(=O)c3ccnn3C)CC2)c1	-15%
Cc1ccc(CN2CCC3(C2)NC(=O)c2ccccc2CO3)cc1 (stereo not drawn)	-29%[70.6 µM]
Cc1onc(-c2cnn(C)c2NCc2ccc(C#N)cc2)c1C(=O)NC1CCCCC1	0%[70.6 µM]
CCC(C(=O)N1CCN(c2cc(C(F)(F)F)ncn2)CC1)c1ccccc1 (stereo not drawn)	-23%
O=C(C[C@H]1NC(=O)c2ccccc2NC1=O)Nc1n[nH]c(CCC2CCCC2)n1	1%
CC(=O)Nc1ccc(OCC(=O)NC2CCN(Cc3ccccc3)CC2)nc1	2%
Cn1c(=O)c2c(ncn2CC(=O)N2CCC(CCOc3ccc(F)cc3)C2)n(C)c1=O (stereo not drawn)	-30%
CCCN(C)C(=O)c1cn2cc(-c3cccc(Cl)c3)n(CC=C(C)C)c(=O)c2n1	4%
CCOC(=O)CCNC(=O)N1CCCCCCn2c(nnc2-c2ccc(F)cc2)CC1	-2%

Carrying on:
Molecule	hNpr1 antagonist
O=C(Nc1ccc(F)cc1)N[C@H]1[C@H](O)[C@@H](Sc2ccccc2)[C@@H]2OC[C@H]1O2	-2%[70.6 µM]
O=C1NC2(CCN(C(=O)c3ccc(Cl)cc3)CC2)CC1c1ccccc1 (stereo not drawn)	1%
COc1ccc(CCNC(=O)c2nnn3c2COC(c2ccc(C)cc2)C3)cc1OC (stereo not drawn)	-18%
Cn1ccnc1C(=O)N1CCCCCCNC(=O)[C@@H]2C[C@@H](C(=O)N3CCc4ccccc4C3)C[C@@H]21	5%
O=C(NC1CCN(C(=O)N2CC3CC(C2)[C@H]2CCCC(=O)N2C3)CC1)C1CCCC1 (stereo partly drawn)	0%
Cc1cccc(NC(=O)N2CCC(CCOc3ccc(F)cc3)C2)c1 (stereo not drawn)	-9%
CCC(C)NC(=O)N1CCCN(S(=O)(=O)c2ccccc2)CCC(=O)NCC1 (stereo not drawn)	2%
COCCNC(=O)C(C)[C@@H]1CC[C@@]2(C)CC[C@H](N[S+](C)(=O)[O-])[C@@H](C)[C@@H]2[C@H]1O (stereo partly drawn)	2%[70.6 µM]
COc1cccc(CNC(=O)CN2CCCc3nc(C)ncc3C2=O)c1	-9%
O=C(C1CCC1)N1CCCC(c2nc(C3CCOCC3)no2)C1 (stereo not drawn)	18%
O=C1CCN(C(=O)COc2ccccc2)CCCC(C(=O)NCc2ccccc2)CCN1 (stereo not drawn)	-8%
COc1cccn(CC(=O)N(Cc2ccc(F)cc2)C2CCCCC2)c1=O	8%

Remaining list, next part
Molecule	hNpr1 antagonist
O=C(NC1CC1)c1nc(-c2cccc(F)c2)c2cnccn12	11%[70.6 µM]
CCc1[nH]nc(C(=O)N(Cc2cccnc2)CC2CCN(C3CCCC3)CC2)c1C	-1%
COc1cc(F)ccc1-c1cc(C(=O)NCc2cnn(C)c2)c2c(c1)N(C)CCO2	3%[70.6 µM]
Cc1ccc2nc(C(=O)NCCc3nc(C)cc(C(F)(F)F)n3)cn2c1	2%
COCCN1CCC(N2CCN(S(=O)(=O)Cc3ccccc3F)CC2)C1=O (stereo not drawn)	-1%
CCn1ncc(N2CCCC(CC(=O)NC3CCCCC3)C2)cc1=O (stereo not drawn)	0%
Cc1cnc(CCNC(=O)c2cn(C)cn2)n1C1CC1	1%
O=C(O)C[C@@H]1CCN(S(=O)(=O)c2ccccc2)C[C@@H]1CCN(CCN1CCOCC1)c1ccccc1	0%
CC[C@@]1(C(=O)O)C[C@H](C(=O)N(C)CCCO)[C@H](c2ccc(OC)cc2)N1C	0%
CN1c2cc(C(=O)Nc3ccc(Cl)cc3)ccc2C(=O)N2CCCCCC21 (stereo not drawn)	-13%
N#Cc1cccc(N2CCN(Cc3ccc(F)c(Cl)c3F)CC2)n1	-20%
COc1cccc(CC(=O)N2CCC3(CC2)CC(Cc2nc(-c4cccnc4)no2)CCO3)c1 (stereo not drawn)	?

(listing goes on)
Molecule	hNpr1 antagonist
Cn1nc(C(F)(F)F)c2cc(C(=O)N3CCC4(CCCO4)CC3)sc21	8%
COc1ccc([C@H]2C[C@@H](O)[C@@H](O)[C@@H]2NC(=O)c2ccccn2)cc1	-14%[70.6 µM]
Cc1nc2c(c(-c3ccc(Cl)cc3)n1)CN(C(=O)c1ccccc1)CC2	3%
O=C(c1ccccn1)N1CCCC(CN2CCCC2)CC1 (stereo not drawn)	-1%
NC(=O)c1cc2c(nc1CCC1COc3ccccc3O1)CCC2 (stereo not drawn)	7%
CCCN(Cc1ccncc1)C(=O)CC1C(=O)NCCN1Cc1ccoc1 (stereo not drawn)	0%
COc1ccc2c(c1)CN(C(=O)c1ccnc(Cl)c1)CC[C@H]1COC(=O)N21	-3%[70.6 µM]
CN1CCN(CC(=O)N2CCCCC2)CC12CCC(=O)N(CC1CC1)CC2 (stereo not drawn)	-9%
CC(=O)Nc1ccc(-c2nnc3n2CCCC3)cc1	4%
COc1ccc(-c2ccc(C(=O)N[C@H]3CCOC[C@H]3C3CCOCC3)o2)cc1	?
CC1CCCCN1C(=O)C(NC(=O)c1cccs1)C1CCN(C(=O)C2CCCC2)CC1 (stereo not drawn)	2%
Nc1ncccc1CN1CCN(C(=O)CO)CC(C(=O)O)C1 (stereo not drawn)	15%

Given field by field: 3 of the compounds above.
> CN1CCN(CC(=O)N2CCCCC2)CC12CCC(=O)N(CC1CC1)CC2 (stereo not drawn)
  hNpr1 antagonist: -9%
> CC(=O)Nc1ccc(-c2nnc3n2CCCC3)cc1
  hNpr1 antagonist: 4%
> COc1ccc(-c2ccc(C(=O)N[C@H]3CCOC[C@H]3C3CCOCC3)o2)cc1
  hNpr1 antagonist: ?

Other entries
Molecule	hNpr1 antagonist
Cc1noc(C)c1CC(=O)N1CCCCCC1c1nc(C2CC2)no1 (stereo not drawn)	-20%
COCCN1C(=O)[C@H]2CN(Cc3cccc(Cl)c3)C[C@H]2C1=O	3%
O=C1NCCCCCCN(S(=O)(=O)c2cccs2)[C@H]2CCC[C@@H]12	2%
CCNC(=O)N[C@H]1C[C@@H](Cc2cc(-c3ccccc3)on2)C1(C)C	-21%[70.6 µM]
CC(C)(C)c1cnc([C@@H]2COCCN2Cc2ccc(Cl)cc2)[nH]1	-18%[70.6 µM]
O=C(CCc1c[nH]c2ccccc12)N1CCC2(CC1)CC(Cc1nc(C3CC3)no1)CCO2 (stereo not drawn)	-19%
NCCC[C@@H](N)C(=O)N1CCCC(c2ccccc2)(c2ccccc2)C1	2%
O=C(Cn1nc2c(cc1=O)CCCCC2)Nc1ccc(Cl)cc1	-19%
Cc1ccc(C(=O)N2CCC3(CC2)N=C(c2cccc(Br)c2)NO3)cc1C	-15%
COc1cc(C(=O)NC2CCN(c3cc(-c4ccc(Cl)cc4)[nH]n3)C2)cc(OC)c1OC (stereo not drawn)	-2%
O=C(Nc1cccc2ccccc12)O[C@@H]1CO[C@H]2[C@@H]1OC[C@@H]2NC(=S)Nc1cccc2ccccc12	-3%
O=C(O)[C@@H]1CN(Cc2ccccc2)C[C@@H]1C(=O)N1CCSCC1	-12%

Pulled by compound from above (two):
Molecule	hNpr1 antagonist
NCCC[C@@H](N)C(=O)N1CCCC(c2ccccc2)(c2ccccc2)C1	2%
Cc1noc(C)c1CC(=O)N1CCCCCC1c1nc(C2CC2)no1 (stereo not drawn)	-20%

Continued.
| Structure | hNpr1 antagonist |
| --- | --- |
| NC(=O)[C@@H]1CN(C(=O)c2ccco2)C[C@H]1COc1ccccc1 | -8% |
| C=CCNC(=O)N1CCC(O)(c2csc(CN3CCN(C)CC3)n2)CC1 | -2%[70.6 µM] |
| CCN1c2cc(C(=O)Nc3cccc(C(C)C)c3)ccc2C(=O)N2CCCCCC21 (stereo not drawn) | -6% |
| COc1ccc(CN2CCC3(CN[S+](=O)([O-])c4ccccc4N3)C2)cc1 (stereo not drawn) | 0% |
| COC(=O)C1=CN(CC(=O)N2CCN(c3ccccc3)CC2)S(=O)(=O)N=C1C | 0% |
| O=C(NC1CCN(c2cc(-c3ccc(F)cc3)[nH]n2)CC1)c1ccc(OC(F)(F)F)cc1 | -20% |
| O=C1NC2(CCCN(Cc3cncs3)C2)Oc2ccccc21 (stereo not drawn) | 20%[70.6 µM] |
| O=C(NCCc1cnc[nH]1)c1ccc2nc(-c3ccc(F)cc3)cn2c1 | -8% |
| N#Cc1ccc(C(=O)N2CCc3n[nH]c(=O)n3CC2)cc1 | 0% |
| O=C1N(Cc2cccnc2)C(=O)C2(CCN(Cc3cc(F)ccc3F)CC2)N1CCc1ccccc1 | 2% |
| O=C(c1ccccc1)N1C[C@@H]2C[C@H](C1)c1ccc(NS(=O)(=O)c3cccc(F)c3)c(=O)n1C2 | 1% |
| O=C(NCc1ccc(Cl)cc1)C1CCN(C(=O)c2ncn3c2COC(c2ccccc2)C3)CC1 (stereo not drawn) | -23% |
| Cc1cccc2[nH]c(CCNC(=O)C3CCC(=O)N(C4CCCCCC4)C3)nc12 (stereo not drawn) | 2% |
| COc1ccc(C(=O)N2CCC3(CC2)CC(Cc2nc(-c4ccccc4)no2)CCO3)cc1 (stereo not drawn) | 7.1µM* |
| CNC(=O)c1cccnc1N1CCOC(c2ccc3cc(OC)ccc3c2)C1 (stereo not drawn) | -4% |

Next entries
| Structure | hNpr1 antagonist |
| --- | --- |
| CN(Cc1cccnc1)c1nc2c(c(=O)[nH]1)CCN(Cc1ccc(Br)o1)CC2 | -14% |
| CC(C)N1CC2CCC(C1)N2Cc1cccc(C#N)c1 | 0%[70.6 µM] |
| CN(C)C(=O)CN1C(=O)CO[C@H](c2ccc(NC(=O)C3CC3)cc2)[C@H]1CO | 1%[70.6 µM] |
| CCOC(=O)Cc1ccc(NC(=O)N2CCN(Cc3nccn3C)CC2)cc1 | 4% |
| CCc1nncn1C1CCN(C(=O)c2cccc(C)c2)CC1 | -3% |
| O=C1N[C@H](CC(=O)N2CCC(c3nc4ccccc4[nH]3)CC2)C(=O)Nc2ccccc21 | -1% |
| COc1ccc(CNC(=O)CC[C@]23CC[C@](C)(O)C[C@H]2C(C)(C)C[C@@H]3NC(=O)CC(C)(C)C)cc1 | 0% |
| COc1ccc(-c2[nH]nc3ncc(C(=O)N4C[C@@H](C)O[C@@H](C)C4)nc23)c(C)c1 | 8%[70.6 µM] |
| CCCS(=O)(=O)N1CC[C@H]2NC(=O)N(c3ccc(F)cc3)C(=O)[C@H]21 | 3%[70.6 µM] |
| Cc1ccc(F)cc1S(=O)(=O)N1CCC(n2cnnc2C(C)C)CC1 | -11% |
| O=C(Nc1ccc(Oc2ccccc2F)cc1)C1CCCCN1C(=O)c1cccnc1 (stereo not drawn) | 0% |
| CCc1cccc(NC(=O)Cn2ccn3nc(-c4ccc(F)cc4)c(CO)c3c2=O)c1 | -13% |
| Cc1noc2c(NCCN3CCOCC3)cc(-c3cccnc3)nc12 | 7%[70.6 µM] |
| O=C(c1cc(C2CC2)no1)N1CCC2(CCCN(C3CCCC3)C2=O)C1 (stereo not drawn) | 2% |
| CCC(c1cccs1)N1C(=O)[C@H]2CN(S(=O)(=O)c3ccccc3F)C[C@H]2C1=O (stereo partly drawn) | -14% |

Arranged by molecular weight (ascending): some entries from above
| Structure | hNpr1 antagonist |
| --- | --- |
| CCCS(=O)(=O)N1CC[C@H]2NC(=O)N(c3ccc(F)cc3)C(=O)[C@H]21 | 3%[70.6 µM] |
| O=C1N[C@H](CC(=O)N2CCC(c3nc4ccccc4[nH]3)CC2)C(=O)Nc2ccccc21 | -1% |
| COc1ccc(CNC(=O)CC[C@]23CC[C@](C)(O)C[C@H]2C(C)(C)C[C@@H]3NC(=O)CC(C)(C)C)cc1 | 0% |

The list continues.
| Structure | hNpr1 antagonist |
| --- | --- |
| O=C(CN1C(=O)NC2(CCOCC2)C1=O)Nc1ccc(F)cc1F | -3% |
| CCCN(CC1CCOC1)S(=O)(=O)c1cccc(C)c1 (stereo not drawn) | 3% |
| O=C1CCCCC(C(=O)NCc2ccco2)N1 (stereo not drawn) | 5% |
| O=C(C1CCCCC1)N1CC(c2nnc(-c3ccncc3)o2)C2(CCOCC2)C1 (stereo not drawn) | 3% |
| COCC(=O)N1CC[C@H](c2nc3ccc(C(F)(F)F)cc3[nH]2)C1 | -2%[70.6 µM] |
| Cc1ccc(-c2nnc(C3CN(C(=O)Cc4ccccc4C)CC34CCOCC4)o2)cc1 (stereo not drawn) | 3% |
| CCOCC1(C)COc2ccc(C(=O)Nc3ccccc3)cc2N1 (stereo not drawn) | -4%[70.6 µM] |
| COC(=O)C1=C(C)N=C2SC=C(CC(=O)N3CCOCC3)N2C1c1ccc([N+](=O)[O-])cc1 (stereo not drawn) | ? |
| COc1ccc(OC)c(NC(=O)c2ccc3c(c2)C(O)CCCCCN3C)c1 (stereo not drawn) | ? |
| COCCN1CCNc2nc(CN(C)Cc3ccccc3)n(Cc3ccccc3)c2C1=O | -6%[70.6 µM] |
| COc1ccccc1NC(=O)N1CC[C@@H](CC(=O)O)[C@@H](CC2=NCCc3cc(F)ccc32)C1 | -1% |
| Cc1ccc(-n2nc(-c3c(C)nc4scc(CC(=O)Nc5ccc(F)cc5)n4c3=O)cc2C)cc1 | -1% |
| O=C(Nc1ccc(-c2nnc3n2CCCC3)cc1)c1cccc(Cl)c1 | -3% |
| CN(C)[C@@H]1CN(C2CCCCCC2)CC[C@@H]1CO | 1% |
| COc1ccc(C(=O)N2CCC(N3C[C@H](O)C[C@H]3C(=O)NC3CCCCC3)CC2)cc1F | -2% |
| CC(C)c1nc(N2CCCCCC2)ncc1C(=O)O | 1% |
| COc1ccc(C(=O)NCCC2CCN(C(=O)Nc3ccccc3)CC2)cc1 | 0% |
| CCCNC(=O)c1cccc2c1CCN2C(=O)Nc1cccc(C)c1 | -23% |
